# High-throughput results from PubChem.
# Vif TR-FRET – inhibitors of Vif binding to APOBEC3G peptide, primary screen, biochemical, TR-FRET, GST-Vif 1-94, biotin-A3G peptide, dose response retest (AID 1117319); hit rate 0.57% among 260,000; inhibition, %, or IC50 in µM where a hit was titrated; TR-FRET GST-Vif / biotin-A3G peptide binding; higher % means a stronger effect; test concentration not given here; strong numbers were not always called active;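 active = above the screen mean plus three standard deviations and confirmed in dose response; inconclusive = results disagree or hit not tested in dose response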;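 also: Vif residues 1-94 fused to GST binding biotinylated APOBEC3G peptide 110-148; 0% = full assay without inhibitor and 100% = GST in place of GST-Vif; retest series ran down from 100 µM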
# LANA-H2B inh – blockers of LANA interaction with H2A/H2B – biochemical, FP readout, HTS, primary screen. AID 2629, 2010. cell-free LANA-H2A/H2B peptide, fluorescence polarization. hit rate 0.6% among 320,000. inhibition, % (no concentration beside the values). Protein LANA1 (Human herpesvirus 8 type P (isolate GK18)), Q9QR71; in the data active = inhibition mostly above about 10%, no sharp cut-off; inactive = mostly below about 6.7%;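 also: stock transfer was 7.5 nL into about 10 µL; 0% = median of vehicle wells and 100% = median of positive control wells; one replicate is shown; the record names a cut of 25% in any replicate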
# Bfl-1 A1 inh – caspase 3/7 activation in MEF A1-2A-BIM cells, primary screen, A1 inhibitor project, cell-based, luminescence, HTS | caspase activation, % (concentration not given with the values) | AID 2462, 2010 | Caspase-Glo 3/7 luminescence, 3 h; percent of clofoctol response, vehicle zero | hit rate 0.066% among 330,000;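 active = over half of replicate activation scores above 10%, or exactly half above 10 with the replicate mean above 10; inconclusive = replicate mean below 10 yet half the replicates above 10; inactive = over half of replicates below 10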;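 also: wells of about 30 µL received 50 nL stock; many hits fall short of the cut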
# B2AR ag – beta2AR agonists driving receptor internalization, primary screen, cell-based, FAP fluorogen, flow cytometry. hit rate 0.43% among 340,000. AID 504454, 2011. Am2.2-beta2AR cells; reference of the scale not given here. response, % (concentration not given with the values). Beta-2 adrenergic receptor (Homo sapiens), P07550;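 active = response above a set limit, near 3 SD of response in nonfluorescent compounds, cut at about 42% in these data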;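 also: stock transfer was 100 nL into about 11 µL; a reference agonist was the positive control; negative values mostly stem from fluorescent compounds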
# UCH37 DUB inh – inhibitors of human UCH37 deubiquitinase, primary screen, biochemical, Ub-AMC cleavage, fluorescence. Ubiquitin carboxyl-terminal hydrolase isozyme L5 (Homo sapiens), Q9Y5K5. purified proteasome/UCH37. inhibition, % (no concentration beside the values). hit rate 0.33% among 330,000. AID 588478, 2011;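 active = mean of two replicates above 20%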;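 also: 0% = compound-free wells with enzyme and 100% = wells lacking proteasome; stock transfer was 100 nL into about 20 µL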
# Target sequence (Q9Y5K5 whole entry, looked up): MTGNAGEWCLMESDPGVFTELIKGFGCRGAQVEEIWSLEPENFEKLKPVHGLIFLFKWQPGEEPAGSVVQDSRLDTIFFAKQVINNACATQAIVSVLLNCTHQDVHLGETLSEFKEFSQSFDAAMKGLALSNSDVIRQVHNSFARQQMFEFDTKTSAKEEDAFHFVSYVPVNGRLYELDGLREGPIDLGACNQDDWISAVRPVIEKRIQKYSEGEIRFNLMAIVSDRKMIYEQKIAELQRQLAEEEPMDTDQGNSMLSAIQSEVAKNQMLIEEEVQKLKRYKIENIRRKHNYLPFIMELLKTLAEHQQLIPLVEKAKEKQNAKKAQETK
#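 Schedule: 30 min plus 25 min, room temperature / Material: human UCH37 within purified proteasomes / Technique: AMC fluorescence intensity at 355/460 nm / Buffer or medium: pH 7.4 Tris-HCl (50 mM) with ovalbumin, ATP-MgCl2, DTT / Controls: wells without proteasome as full block, compound-free enzyme plus substrate as uninhibited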
# Ecoli growth – E. coli growth inhibition, primary screen, OD600; Escherichia coli growth, 23 h; hits give low values; OD600 absorbance (concentration not given with the values); hit rate 0.21% among 330,000;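 active = OD600 absorbance below the run mean of sample wells minus 3.6 SD, in any replicate, cut at about 0.56 in these data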;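 also: stock transfer was 300 nL into about 60 µL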
# HNF4A DNA FP – change in binding of human HNF4A to DNA, primary screen, biochemical, fluorescence polarization, FITC-DNA. Hepatocyte nuclear factor 4-alpha (Homo sapiens), P41235. 1 h. activity change, % at 10 µM. hit rate 0.3% among 360,000; in the data active = activity change above about 30%, passing the limit was not always enough;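 also: controls were the assay level and a saturating level of protein; the project sought stronger binding though the title names inhibitors; some compounds called inactive have numbers as strong as hits; positive values seem to mean higher polarization but the record does not say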
# Target sequence (P41235 whole entry, looked up): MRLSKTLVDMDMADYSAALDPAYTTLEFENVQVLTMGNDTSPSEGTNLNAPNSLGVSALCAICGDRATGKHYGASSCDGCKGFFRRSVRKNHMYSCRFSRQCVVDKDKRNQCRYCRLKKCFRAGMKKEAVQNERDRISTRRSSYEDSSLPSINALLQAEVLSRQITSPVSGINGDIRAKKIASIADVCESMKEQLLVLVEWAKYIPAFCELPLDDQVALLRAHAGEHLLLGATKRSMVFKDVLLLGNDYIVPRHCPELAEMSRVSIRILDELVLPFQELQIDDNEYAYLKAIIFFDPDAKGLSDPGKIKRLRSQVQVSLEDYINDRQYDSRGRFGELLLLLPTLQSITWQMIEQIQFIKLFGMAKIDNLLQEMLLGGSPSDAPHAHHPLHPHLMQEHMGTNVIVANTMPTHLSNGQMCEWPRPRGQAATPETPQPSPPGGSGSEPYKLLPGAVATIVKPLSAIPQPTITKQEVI
# Active calls of the source: *; ? = inconclusive; . = no result given; & = joins results of further samples.
SMILES,Vif TR-FRET,LANA-H2B inh,Bfl-1 A1 inh,B2AR ag,UCH37 DUB inh,Ecoli growth,HNF4A DNA FP
OCCOCCOc1cccc2[nH]ccc12,.,1.4,-0.2,3,2.8,0.66,0.9
Cc1ccc(-c2nc(-c3ccccn3)no2)cc1Cl,7%,-3.4,-13,-8,.,.,3.8
CCN(C[C@H]1N[C@@](C)(C(=O)OC)[C@H]2C(=O)N(C)C(=O)[C@@H]12)S(=O)(=O)c1ccc(C)cc1,7%,.,.,-4,3.3,0.72,-1.3
CCN(CC)S(=O)(=O)c1cc(NC(=O)c2ccc(Br)s2)ccc1C,7%,1.0,-0.7,-7,5.0,0.69,0.1
Cc1ccc(CCNCc2c(C(=O)O)c(C)n(-c3ccccc3)c2C)cc1,2%,.,.,-5,3.4,0.66,-0.9
Cc1nc2ccccc2c(=O)n1NC(=O)C1CCC(C(C)(C)C)CC1 (stereo unspecified),4%,-0.4,-0.1,-3,-0.1,0.66,-3.5
COc1ccc(Nc2nc(N3CCCC3)nc(N3CCOCC3)n2)cc1,.,0.5,0.7,-2,0.6,0.74,0.7
CC(=O)NC(O)C(=O)c1ccco1 (stereo unspecified),15%,-1.5,-0.6,0,1.1,0.64,5.6
CC1CN(S(=O)(=O)c2ccc(C(=O)NC3CCCCC3)cc2)CC(C)O1 (stereo unspecified),1%,3.4,0.5,-1,-2.0,0.72,1.1
O=C(O)C1CCN(S(=O)(=O)c2cccc3nonc23)CC1,-3%,0.4,0.2,6,7.7,0.7,-2.2
CC(C)CNC(=S)NC1CC2CCCC(C1)N2C1CCCCC1 (stereo unspecified),.,1.7,-0.9,4,-1.1,0.66,-0.6
COc1ccc(-n2c(=S)[nH]c3c(oc4ccccc43)c2=O)cc1,-44%,2.0,0.4,2,3.9,0.65,-1.9
CCOC(=O)[C@@H]1[C@H]2COc3cc(OC)ccc3[C@H]2N2C(=O)N(c3ccccc3)C(=O)[C@]12C,.,1.5,?,-3,-9.4,0.79,0.9
Cc1cc(C)c(C)c(Oc2ncnc(N)c2[N+](=O)[O-])c1,?,11,-0.2,0,7.5,0.68,4.9
CCCC(=O)N(c1ccc(OC)cc1)C1C=CS(=O)(=O)C1 (stereo unspecified),-1%,-0.6,0.5,-8,0.3,0.66,3.4
CC(C)CCNC(=O)c1onc(CSc2ccccn2)c1C(=O)NCCC(C)C,.,-0.1,0.5,-7,-2.1,0.7,2.2
CC(C)[C@H](Nc1ccc(S(=O)(=O)N2CCOCC2)cc1[N+](=O)[O-])C(=O)OCC(N)=O,-5%,-4.9,-0.1,-4,5.7,.,-2.8
CCCC(=NCc1ccccc1)C1=C(O)C(C(=O)OC)C(C)(C)CC1=O (stereo unspecified),3%,10,0.5,-6,5.3,0.68,1.7
CC1CCCC(NC(=O)CCNS(=O)(=O)c2ccc(Br)cc2)C1C (stereo unspecified),-3%,4.0,-0.7,-1,3.6,0.67,0.4
CCCNC(=O)c1ccc(N2CCC3(CC2)CC(c2ccc(Cl)cc2)=NO3)c([N+](=O)[O-])c1,.,-5.8,1.7,-8,-1.1,0.71,1.6
Cc1c(N(C)C(=O)c2ccco2)c(=O)n(-c2ccccc2)n1C,-1%,-2.7,0.7,-3,1.4,0.7,0.2
Cc1cn2c(=O)c(C(=O)N3CCN(c4ccccc4F)CC3)cnc2s1,3%,-1.6,0.8,-1,8.8,0.69,-0.2
O=C(CSc1nncc(=O)[nH]1)Nc1cccc([N+](=O)[O-])c1,.,-1.4,-0.8,-3,3.4,0.7,0.1
O=C(COC(=O)CCS(=O)(=O)c1ccc(Cl)cc1)NCCc1ccc(Cl)cc1Cl,-3%,-7.6,-0.6,-2,-3.1,0.69,-2.6
CNc1c([N+](=O)[O-])ncn1C,4%,2.1,-0.2,-4,6.5,0.72,0.8
Fc1cc(NC(=S)NCc2ccc(CNC(=S)Nc3ccc(Cl)c(F)c3)cc2)ccc1Cl,-1%,5.0,0.2,3,4.3,0.7,-2.0
COCCNC(=O)CN(C(=O)Cn1nnc2ccccc21)c1ccccc1,-5%,3.1,0.0,-4,-0.6,0.66,2.8
CCN1C(=O)C2C(c3ccc(O)c(OC)c3)NC(C)(C(=O)OC)C2C1=O (stereo unspecified),5%,-2.7,-0.5,-3,0.2,0.69,2.8
CCCOc1ncnc2c1[nH]c1ccc(C)cc12,-2%,-4.1,-6.1,.,-53,0.65,.
CC1CN(c2ccc(C(=O)c3ccccc3C(=O)O)cc2[N+](=O)[O-])CC(C)O1 (stereo unspecified),16%,-3.2,0.3,0,12,0.67,2.1
COc1ccc(OCCn2cc(/C(N)=N/O)c3ccccc32)cc1,1%,3.5,-0.2,2,1.7,0.69,1.8
COc1cc(CN2CCN(C(c3ccccc3)c3ccccc3)CC2)cc(OC)c1OC,.,4.7,-0.7,-1,4.8,0.68,-0.4
O=C(CN1C(=O)C(=O)N(C2CCCC2)C1=O)Nc1ccccc1OC(F)F,.,0.3,-0.6,6,0.4,0.67,-6.6
CCCn1nnnc1-c1ccc(Cl)cc1,4%,-1.1,1.4,5,2.1,0.73,1.4
COc1ccc(F)cc1C(=O)COC(=O)c1n[nH]c(=O)c2ccccc12,-21%,0.7,0.4,-7,1.1,0.66,1.6
COC(=O)/C(=N/Nc1ccccc1Cl)Sc1nnc(C(O)c2ccccc2)n1-c1ccccc1 (stereo unspecified),.,-0.4,0.8,5,.,.,-1.3
COC(=O)c1cc(NC(=S)NCc2ccc(Cl)cc2)cc(C(=O)OC)c1,.,-2.0,0.0,6,5.0,0.67,-3.5
NS(=O)(=O)c1ccc(NC(=O)COC(=O)c2cccc(S(=O)(=O)N3CCCC3)c2)cc1,-6%,-0.1,-0.9,-4,5.1,0.72,1.3
Cc1ccc(S(=O)(=O)NCCC(=O)OCC(=O)Nc2ccccc2Cl)cc1,.,-3.4,-0.6,-9,1.0,0.71,-1.5
O=C(Nn1c(O)c(C=C2N=c3ccccc3=N2)sc1=S)c1ccc(Cl)cc1,28%,2.4,0.6,4,2.9,0.75,0.3
S=C(NCCc1ccncc1)Nc1cccc2ccccc12,2%,-3.5,1.1,7,2.2,0.71,-1.5
Cc1cc(C)c2c(N)c(C(=O)Nc3ccccc3Br)sc2n1,.,0.8,-1.2,-1,-264,0.69,-2.6
C[C@@H](CO)NC(=O)c1ccc2c3n(nc2c1)-c1ccc(Cl)cc1CO3,10%,-5.6,-3.1,-9,-5.7,.,-0.6
CC(C)(CNS(C)(=O)=O)SCc1ccc(Cl)cc1,1%,-1.4,-0.1,-5,0.6,0.66,-1.8
CC1CCc2c(C(=O)OCC(=O)Nc3cccc(S(=O)(=O)N4CCCCCC4)c3)csc2C1 (stereo unspecified),-1%,-5.7,-0.1,-1,0.4,0.73,-6.2
COc1cc2c(c(OC)c1OC)CC(=O)N(C)CC2,-3%,0.3,-0.5,1,1.5,0.7,-2.6
O=C(C1=C[C@H](C2CC2)C[C@H](OCc2ccc(CO)cc2)O1)N1CCOCC1,31%,4.4,-0.3,4,-1.4,.,0.6
CCN1C(=O)C(CC(=O)Nc2ccc(Br)cc2)N(CCCc2ccccc2)C1=S (stereo unspecified),-4%&-3%,1.3,0.2,16,1.4,0.59,-1.1
COc1ccccc1NC(=O)Nc1nc(CC(=O)Nc2ccc(OC)c(OC)c2)cs1,4%,5.3,-1.9,-2,1.2,0.64,-1.5
Cc1nnc(N(C)C(=O)c2cccnc2)s1,-4%,-0.5,-0.1,10,0.1,0.69,3.4
COc1cc(/C=C(\C#N)c2nc3ccccc3o2)ccc1O,7%,-3.2,-5.5,-566,8.3,0.65,190
COc1ccc(C)cc1NC(=O)CCNS(=O)(=O)c1ccc2c(c1)CCC(=O)N2,.,0.5,-0.8,-1,2.3,0.72,-0.3
COc1ccc(C(CC(=O)c2ccccc2)CC(=O)c2ccccc2)cc1OC,-2%,-1.9,0.7,-6,0.2,0.65,-0.8
CCOc1ccccc1CNC(=O)c1ccc2nc(N3CCOCC3)sc2c1,.,4.2,-0.6,-5,4.8,0.75,-2.4
CC(C(=O)NCc1ccco1)n1cc(C(=O)c2ccco2)c2ccccc21 (stereo unspecified),14%,4.2,1.8,-8,0.4,0.72,-2.1
Cc1ccc(Nc2ncccc2C(=O)NCc2cccs2)c(C)c1,-1%,-1.3,0.4,7,3.5,0.73,5.7
O=C(O)c1cccc2c1C(=O)c1ccccc1-2,20%,1.5,0.4,2,1.7,0.65,-5.3
CCOC(=O)C1C(=O)NC(C)C1c1ccccc1 (stereo unspecified),-3%,0.2,0.8,1,3.5,0.69,1.2
O=C(CNC(=O)c1ccccc1)Oc1cccc(Cl)c1,.,0.2,0.1,2,6.7,0.63,1.4
COc1cc(NS(=O)(=O)c2c(C(=O)N3CCOCC3)c(C)n(C)c2C)cc(OC)c1OC,-4%,3.7,0.6,-4,3.4,0.7,-3.0

# Three structures out of the list, ordered by length of the SMILES, smallest number first:
SMILES,Vif TR-FRET,LANA-H2B inh,Bfl-1 A1 inh,B2AR ag,UCH37 DUB inh,Ecoli growth,HNF4A DNA FP
COc1ccc(C(CC(=O)c2ccccc2)CC(=O)c2ccccc2)cc1OC,-2%,-1.9,0.7,-6,0.2,0.65,-0.8
COc1ccccc1NC(=O)Nc1nc(CC(=O)Nc2ccc(OC)c(OC)c2)cs1,4%,5.3,-1.9,-2,1.2,0.64,-1.5
COc1cc(NS(=O)(=O)c2c(C(=O)N3CCOCC3)c(C)n(C)c2C)cc(OC)c1OC,-4%,3.7,0.6,-4,3.4,0.7,-3.0

# Compound profiles, from the list above. Values in the order: Vif TR-FRET	LANA-H2B inh	Bfl-1 A1 inh	B2AR ag	UCH37 DUB inh	Ecoli growth	HNF4A DNA FP
# `CCN1C(=O)C(CC(=O)Nc2ccc(Br)cc2)N(CCCc2ccccc2)C1=S` (stereo unspecified) is listed with -4%&-3%	1.3	0.2	16	1.4	0.59	-1.1
# `CC1CCc2c(C(=O)OCC(=O)Nc3cccc(S(=O)(=O)N4CCCCCC4)c3)csc2C1` (stereo unspecified) is listed with -1%	-5.7	-0.1	-1	0.4	0.73	-6.2

# (further entries)
SMILES,Vif TR-FRET,LANA-H2B inh,Bfl-1 A1 inh,B2AR ag,UCH37 DUB inh,Ecoli growth,HNF4A DNA FP
O=C1C2CCCN2C(c2cccc(F)c2)N1c1cccc(Cl)c1 (stereo unspecified),-1%,-0.1,-1.1,2,0.5,0.72,1.4
CCCCOC(=O)c1ccc(O)cc1,12%,1.0,-1.5,-4,0.9,0.68,4.5
O=C(/C=C/c1ccccc1)NCCSc1ccc(Cl)cc1,-1%,-7.0,-0.6,-2,1.8,.,-2.0
CCOCCCN(C)C1CCN(C(=O)c2oc3ccccc3c2NC(=O)COc2ccc(F)cc2)CC1,.,5.2,-0.5,6,1.0,0.64,1.8
COc1ccc(N2CCN(C(CNC(=O)C3CCCCC3)c3ccco3)CC2)cc1 (stereo unspecified),0%,0.8,0.8,-2,1.1,0.69,2.1
Cc1ccc(NC(=O)CCCn2nc(C)c3c(C)n(-c4ccccc4)nc3c2=O)cc1C,.,-9.7,1.0,-4,3.6,0.67,-0.7
CN1C(=O)C2(N=c3ccccc3=N2)c2ccccc21,-7%,3.3,0.0,-16,-3.6,.,0.9
Nc1c(Cl)c(Cl)nc(C(=O)N/N=C/c2cccnc2)c1Cl,-4%,4.2,0.1,-9,.,.,-2.1
COc1ccc(NC(=O)N[C@@H](CCSC)C(=O)O)cc1OC,-8%,1.1,0.1,1,2.5,0.7,-0.1
